# PINK1 modulator – modulators of PINK1 expression | PINK1 immunofluorescence, high-content cytometry, 24 h | Potency, µM (highest dose often 76.6 µM), for the others: at the top dose activation (PINK1 increase), hits mostly activators | hit rate 0.2% among 410,000; active = well fitted activation curve with a large enough effect; inconclusive = small, poorly fitted or top-dose-only effect; inactive = flat fitted curve, though single readings scatter; cell line not stated here;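 further: potency means the concentration at half of the fitted maximal effect; % of control where 0% means no effect; nearly all actives have a fitted effect of over 65% in size; a mitochondrial uncoupler was the plate control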
#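 Fluorescence from anti-PINK1 antibody, together with nuclear and cell stains, was scanned on a laser-scanning cytometer. Before staining, stable-line cells were incubated 24 hours with compounds at 5 concentrations; primary antibody 12 h at 10 degrees C.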
# D2 ag – activates the human D2 dopamine receptor | P14416 | DiscoveRx PathHunter D2 beta-arrestin, luminescence, 90 min; 100% = 57 uM dopamine signal | activation, % (no concentration beside the values) | hit rate 0.084% among 360,000; in the data active = activation above about 40%; inconclusive = about 15% to 40%; inactive = below about 15%; further: compound concentration not given in the record; the text of the record calls up to 30% inactive
#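 DiscoveRx PathHunter D2 beta-arrestin cells (2,100/well) attached overnight, then compound-stimulated 90 min at 37 C in HBSS/10 mM HEPES/0.1% Tween-20 buffer; beta-galactosidase complementation read by luminescence after 1 h at ambient temperature. Dopamine 57 uM final (EC100) as control.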
# TRPML1 ag – human mucolipin-1 channel agonism. AID 624414. hit rate 0.12% among 410,000. activation, % (concentration not given with the values). TRPML1-expressing cells, Ca2+ dye fluorescence, FDSS; host cell line not named in the record; reference of the full effect not given here; in the data active = activation above about 50%; inconclusive = about 30% to 50%; inactive = below about 30%; further: 0% is about no effect; the text of the record puts the active cut at 80%
#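 Tet-induced TRPML1-DL cells, 1,500 per well, cultured overnight, were loaded with a no-wash Ca2+ dye for 45–90 min. Calcium fluorescence was recorded on the FDSS for 110 s after compound addition, before the EC80 agonist (4 uM 54-4) was added.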
# Six1-Eya2 inh – blocks human Six1 binding to Eya2. Q15475+O00167. activity change, % (test concentration not listed). AlphaScreen GST-Six1/His-Eya2 binding, biochemical; active compounds read low; control for the full effect not named in the record. hit rate 0.56% among 360,000; in the data active = activity change below about -65%; inconclusive = about -30% to -65%; inactive = above about -30%; further: on the % scale 0 is the no-effect control and ±100 the full control effect
# Target sequence (O00167 whole entry, looked up): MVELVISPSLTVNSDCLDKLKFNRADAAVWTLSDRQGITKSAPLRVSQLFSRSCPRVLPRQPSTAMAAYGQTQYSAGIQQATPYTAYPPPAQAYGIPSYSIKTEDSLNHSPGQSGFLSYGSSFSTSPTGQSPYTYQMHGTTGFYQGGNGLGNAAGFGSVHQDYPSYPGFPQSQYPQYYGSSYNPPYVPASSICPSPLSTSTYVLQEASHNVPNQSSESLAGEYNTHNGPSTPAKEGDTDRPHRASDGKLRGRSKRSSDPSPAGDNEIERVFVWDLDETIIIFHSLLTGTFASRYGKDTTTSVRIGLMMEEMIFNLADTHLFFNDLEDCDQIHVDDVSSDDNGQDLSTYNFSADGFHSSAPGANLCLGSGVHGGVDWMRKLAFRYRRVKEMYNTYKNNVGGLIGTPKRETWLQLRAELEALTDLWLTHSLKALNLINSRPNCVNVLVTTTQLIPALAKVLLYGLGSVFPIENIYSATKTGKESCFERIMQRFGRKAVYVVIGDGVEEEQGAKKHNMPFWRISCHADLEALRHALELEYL
# Target sequence (Q15475 whole entry, looked up): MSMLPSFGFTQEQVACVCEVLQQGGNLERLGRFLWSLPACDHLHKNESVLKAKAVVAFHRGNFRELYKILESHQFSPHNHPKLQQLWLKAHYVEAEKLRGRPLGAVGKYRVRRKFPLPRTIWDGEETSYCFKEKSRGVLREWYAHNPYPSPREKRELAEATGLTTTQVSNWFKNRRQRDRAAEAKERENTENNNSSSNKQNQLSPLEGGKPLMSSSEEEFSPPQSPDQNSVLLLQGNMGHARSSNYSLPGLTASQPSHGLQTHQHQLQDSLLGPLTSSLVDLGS
#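 Homogeneous AlphaScreen proximity assay pairing GST-Six1 with His-tagged Eya2 (added as 5X mix: 250 nM and 500 nM) in 50 mM Tris pH 8.0, 300 mM NaCl, 1 mM TCEP. Glutathione donor and nickel acceptor beads; 1 h, 37 °C, dark.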
# CtBP-E1A blk – CtBP/E1A binding inhibition | hit rate 0.49% among 340,000 | activity change, % (test concentration not listed) | AlphaScreen GST-E1A/His-CtBP binding, 1536-well; active compounds read low; control for the full effect not named in the record | AID 651724; in the data active means activity change below about -65%; inconclusive means about -30% to -65%; inactive means above about -30%; further: on the % scale 0 is the no-effect control and ±100 the full control effect
#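 Homogeneous bead-based format: GST-tagged E1A captured on glutathione donor beads, His-tagged CtBP on nickel acceptor beads; compounds precede bead addition by 2 h at 37 °C.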
# TRPML1 inh – inhibitors of human TRPML1 channel; hit rate 0.02% among 390,000; TRPML1-inducible cells, Ca2+ dye fluorescence, FDSS; active compounds read low; inhibition of EC80 agonist-evoked calcium signal; AID 624415; activity change, negative = inhibition, % (concentration not given with the values); Q9GZU1; in the data active means activity change below about -50%; inconclusive means about -30% to -50%; inactive means above about -30%;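 further: stimulus is agonist 54-4 at its EC80 concentration; on the % scale 0 is the no-effect control and ±100 the full control effect; the text of the record puts the active cut at -80%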
#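 Calcium fluorescence in TRPML1-DL cells induced overnight with Tet: a 110 s read after compound pin addition, then a 110 s antagonist read after challenge with 54-4 at 4 uM final (EC80).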
# An asterisk follows results filed as active; ? = inconclusive; . = not tested or not shown; & = joins results of further samples; [ ] = dose if it differs, or a comment.
# Every second line gives: PINK1 modulator	D2 ag	TRPML1 ag	Six1-Eya2 inh	CtBP-E1A blk	TRPML1 inh
COc1cc(OC)cc(C(=O)NC2CCN(Cc3nnnn3Cc3cccs3)CC2)c1
→ .	-0.4	1.0	-2	-1	-1
CC1=CN2CC(O)CN=C2C=C1 (stereo unspecified)
→ -1.3%[38.3 µM]	1.0	0.1	3	2	-11
COCCCN1C(=O)c2ccc(C(=O)NCCc3ccccc3)cc2C1=O
→ -0.6%	-2.2	0.4	4	4	-12
CCOc1cc(N2CCOCC2)c(OCC)cc1NC(=O)CN1C(=O)C2CC=CCC2C1=O (stereo unspecified)
→ 0.5%	3.4	-0.4	-5	6	-6
CCOCCn1c(SCc2c(F)cccc2Cl)nc2c1c(=O)[nH]c(=O)n2C
→ 1.4%	-2.8	0.6	3	12	-6
O=C(OCC(=O)N1CCCc2ccccc21)c1c(F)cccc1F
→ 0.5%	-2.4	-0.3	9	-10	-4
Cc1ccc(Cc2nc3ccccc3nc2SCC(=O)NCCC(C)C)cc1
→ 3.6%	.	-0.2	.	.	-7
CCn1c(CNC(=O)c2ccc3c(c2)OCO3)nnc1SCC(=O)Nc1cc(C)ccc1OC
→ -1.9%	-0.7	0.9	0	-7	-2
COc1ccc(CC(=O)N/N=C/c2sccc2C)cc1
→ -2.0%	-1.3	1.7	-16	-4	0
Cc1cc([N+](=O)[O-])cc2c1NC(=O)C2(O)N1CCCCCC1 (stereo unspecified)
→ -0.9%	-4.3	0.0	3	5	-6
CCCNCc1cc(OCC)c(OCC(N)=O)cc1Br
→ 3.4%	-2.2	-0.8	0	0	0
CCc1ccccc1NC(=O)C1CCCN(c2cnccn2)C1 (stereo unspecified)
→ 0.4%	.	0.1	.	.	-2
O=C(Nc1cccc2c1CCCC2)C1CCN(c2nnnn2-c2ccccc2)CC1
→ -0.4%	0.6	2.5	4	9	-1
COc1cccc(-c2nnc(SCc3nc4ccccc4[nH]3)n2N)c1
→ 0.7%	-4.3	-0.7	-6	5	-6
Cc1cccc(N(C(=O)Cn2nnc(-c3ccccc3F)n2)C(C(=O)NC(C)(C)C)c2ccncc2)c1 (stereo unspecified)
→ 4.8%	0.9	-0.9	2	0	16
CCCc1ccc2oc(C(=O)N(Cc3nccn3C)C(C)C)c(C)c2c1
→ -1.0%	-5.2	1.1	-3	.	81
C[C@@H]1C[C@H]2[C@@H]3CCC4=CC(=O)C=C[C@]4(C)[C@@]3(F)[C@@H](O)C[C@]2(C)[C@H]1C(=O)CO
→ 1.6%	3.3	0.2	-2	7	-9
CCCSc1nc2c(c(=O)n1-c1ccc(OCC)cc1)SCC2
→ -2.7%	-1.8	0.4	1	2	25
COc1ccc(NC(=O)c2cccc(S(=O)(=O)N3CCOCC3)c2)cn1
→ 1.2%	3.0	0.0	-6	-13	-1
O=C(CSc1nnc(CNc2ccccc2)o1)N1CCc2ccccc21
→ 17%[38.3 µM]	-2.0	0.4	2	3	1
O=S(=O)(c1ccc(-c2nc3ccccc3s2)cc1)N1CCCC1
→ -0.8%[38.3 µM]	-1.3	0.5	7	8	-1
CC1(c2nnnn2Cc2ccccc2)CCC(=O)N1CCc1ccccc1F (stereo unspecified)
→ -0.9%	.	1.8	13	-17	.
O=C(Nc1cccc(Cl)c1)Nc1nc(-c2ccccc2)cs1
→ 5.3%	-5.2	-0.4	4	0	17
CSCC[C@H](NC(=O)C1CCN(S(=O)(=O)c2ccc(C)cc2)CC1)C(=O)NCC1CCCO1 (stereo partly specified)
→ 5.3%	-2.2	0.2	5	4	2
COC(=O)c1ccccc1NC(=O)CN1CCC(n2nnc3cc(F)ccc32)CC1
→ -0.5%	-2.5	0.4	-16	-4	15
COCc1cccc(-c2csc(C(O)c3ccc(F)c(F)c3)n2)c1 (stereo unspecified)
→ 3.6%	-2.2	-0.1	5	-16	.
Cc1ccc(NC(=O)CSc2nc(=O)n(CCCN3CCOCC3)c3c2CCCC3)c(C)c1
→ 0.0%	0.1	2.2	4	0	8
COc1ccc(C2(C(=O)Nc3ccc(OC)cc3OC)CCCC2)cc1
→ 0.2%	-3.0	-0.1	2	1	-6
O=C1CCCN1CCC1CCN(C2CC(=O)N(c3ccc(F)cc3)C2=O)CC1 (stereo unspecified)
→ 4.9%[38.3 µM]	-0.4	0.7	4	1	0
CCCCNCCOCCOc1ccc(C)cc1[N+](=O)[O-]
→ -3.8%	-0.9	0.3	6	-3	-17
NC(=O)C1CCCN(C(=O)CN2C(=O)NC(c3ccccc3)(c3ccccc3)C2=O)C1 (stereo unspecified)
→ 2.1%	2.5	0.2	8	12	-6
Nc1ccc(S(=O)(=O)Nc2ccc(S(N)(=O)=O)cc2)cc1
→ .	-2.2	0.9	9	0	26
CCc1c(-c2ccccc2)nc(N)c(C#N)c1-c1cccs1
→ -1.0%	2.4	2.5	5	-1	6
CC(=O)N1CCN(c2ccc([N+](=O)[O-])c(NCc3cccnc3)c2)CC1
→ 2.3%	-2.5	-1.4	-12	-8	-9
COc1cc(C(=O)OCC(=O)c2c(N)n(C)c(=O)n(C)c2=O)ccc1OCCC(C)C
→ 11%	0.1	0.4	6	20	-8
Cc1ccccc1OCC(O)CN1CCN(CCN2C(=O)c3cccc4cccc(c34)C2=O)CC1 (stereo unspecified)
→ -6.6%	0.8	0.8	-16	-18	-11
NNc1cc2c(nn1)CCN(C(=O)c1ccccc1)C2
→ 9.9%	-2.8	-0.4	-1	-15	27
CC(C)n1ncc2c(C(=O)Nc3ccc(S(N)(=O)=O)cc3)cc(C3CC3)nc21
→ 9.9%	-2.6	3.6	-3	-4	-7
COc1cc2c(cc1OC)C(c1ccccc1)N(C(=O)c1ccccc1F)CC2 (stereo unspecified)
→ 3.0%	0.6	2.5	-8	.	4
CCOC(=O)c1c(OCC)[nH]c2c1cc(O)c1ccccc12
→ -1.0%[38.3 µM]	10	0.0	?	?	4
COC(=O)C1=NN(C(C)(C)CC(C)=O)C2C(=O)N(C3CCCCC3)C(=O)C12 (stereo unspecified)
→ 1.0%	-4.2	0.0	9	.	2
O=C(CCN1CCCCC1)N/N=C/c1ccc(Br)cc1
→ -1.3%	-0.7	2.8	-2	-1	-1
O=c1[nH]c(=O)n([C@H]2C[C@H](O)[C@@H](CO)O2)cc1F
→ 3.0%	-5.4	-0.1	-1	0	-8
Cc1ccsc1/C=N/NC(=O)Cc1cc(=O)[nH][nH]1
→ 0.1%	-3.1	0.0	-2	-7	11
COc1ccc(NC(=O)C2CCC2)cc1S(=O)(=O)Nc1cc(C)ccc1Br
→ -0.4%	2.2	0.6	-2	-2	-4
CC(C)(C)c1ccc(C(=O)N2CCC(C(=O)NCc3ccco3)CC2)cc1
→ -1.1%	-2.0	0.1	-4	0	9
Cc1c(C(=O)OCC(=O)N2CC(C)OC(C)C2)oc2ccc(Br)cc12 (stereo unspecified)
→ 0.9%	-2.2	0.0	-2	7	-8
O=[N+]([O-])c1ccccc1N(S(=O)(=O)c1ccccc1)S(=O)(=O)c1ccccc1
→ -0.2%	1.6	-0.2	-27	-7	1
CCc1cc(CNC(=O)C2CCC(=O)N(CCc3ccc(OC)cc3)C2)on1 (stereo unspecified)
→ -1.3%	-2.1	0.4	5	-21	-2
COc1ccccc1C(=O)Nc1ccc(S(=O)(=O)Nc2cnc3ccccc3n2)cc1
→ 1.6%	-2.1	-0.7	-14	3	-11

# Next records
# Every second line gives: PINK1 modulator	D2 ag	TRPML1 ag	Six1-Eya2 inh	CtBP-E1A blk	TRPML1 inh
O=C(NCc1cccnc1)c1ccc(Cl)cc1[N+](=O)[O-]
→ 1.7%	-1.9	-0.1	16	4	-6
CNc1ncc(C(=O)c2ccc(F)cc2)s1
→ 3.7%	0.2	0.0	0	3	9
CC1(C)CC2(CCCN(CC(O)(c3ccccc3)c3ccccc3)C2)CCO1 (stereo unspecified)
→ ?	-4.8	2.2	-3	5	1
CC1(C)Cc2ccccc2-c2nc(-c3ccccc3)oc(=O)c21
→ 12%	-1.2	1.3	14	14	20
Cc1cc(C(=O)OCC(=O)NCc2ccco2)c(C)o1
→ 4.6%	2.5	1.0	0	0	5
O=C(NCc1ccccc1Cl)[C@@H]1CCCN1S(=O)(=O)c1ccc(Cl)cc1
→ 0.2%	-2.4	-0.4	0	-17	-4
Cc1cccc(NC2=CC(=O)CC(C)(C)C2)c1C
→ -0.3%	-1.1	1.2	5	-10	15
COc1cc(CO)cc(-c2cc(CO)cc(OC)c2OC)c1OC
→ -0.3%	0.0	-0.6	0	2	-4
Cc1ccn(CC(=O)N2N=C(C(F)F)CC2(O)C(F)F)n1 (stereo unspecified)
→ 2.0%	-1.8	-0.1	3	-2	5
Cc1ccc(OCC(=O)N2CCCCC2C)c([N+](=O)[O-])n1 (stereo unspecified)
→ 0.8%	-3.4	0.1	0	2	9

# Part of the list above in another layout.
canonical_smiles | PINK1 modulator | D2 ag | TRPML1 ag | Six1-Eya2 inh | CtBP-E1A blk | TRPML1 inh
CC1(C)CC2(CCCN(CC(O)(c3ccccc3)c3ccccc3)C2)CCO1 (stereo unspecified) | ? | -4.8 | 2.2 | -3 | 5 | 1
O=C(NCc1ccccc1Cl)[C@@H]1CCCN1S(=O)(=O)c1ccc(Cl)cc1 | 0.2% | -2.4 | -0.4 | 0 | -17 | -4
Cc1cc(C(=O)OCC(=O)NCc2ccco2)c(C)o1 | 4.6% | 2.5 | 1.0 | 0 | 0 | 5
Cc1ccn(CC(=O)N2N=C(C(F)F)CC2(O)C(F)F)n1 (stereo unspecified) | 2.0% | -1.8 | -0.1 | 3 | -2 | 5
CC1(C)Cc2ccccc2-c2nc(-c3ccccc3)oc(=O)c21 | 12% | -1.2 | 1.3 | 14 | 14 | 20

# Continuation:
# Every second line gives: PINK1 modulator	D2 ag	TRPML1 ag	Six1-Eya2 inh	CtBP-E1A blk	TRPML1 inh
Cc1nc2nc(C)c(CCC(=O)N3CCOCC3)c(C)n2n1
→ -0.3%	-1.7	-0.3	-1	-14	9
Cc1ccc(C(=O)CCC(=O)N(C)CC(=O)Nc2ccccc2Br)cc1
→ -1.6%	-0.2	0.6	-5	4	0
CSc1ccc(CCNC(=O)CCc2nnc3ccc(NCCCN4CCCC4=O)nn23)cc1
→ -0.3%	-0.3	-0.3	-23	.	5
Cc1cc2oc(C(=O)N(Cc3ccc(N(C)C)cc3)CC3CCCO3)c(C)c2cc1C (stereo unspecified)
→ 2.9%&3.8%	-0.2	3.7&0.6	?	.	-9&-3
COc1ccc(C2NC(=O)c3ccccc3O2)c(OC)c1OC (stereo unspecified)
→ 6.9%[38.3 µM]	-2.5	0.1	-3	-22	-1

# High-throughput results as filed in PubChem.
